# KCNQ2 inh – KCNQ2 channel blockers in CHO-K1 cells – cell-based, FluxOR thallium flux, B-score, primary screen (AID 2156); O88943; 20 min; stronger effect = lower value; only compounds with negative scores are shown here; some inactives read as strong as hits; B-score at 10 µM; actives 1.1% (n = 310,000);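 active means fluorescence ratio B-score at most minus 3 library SDs, with starting brightness B-score within 2 library SDs, cut at about -5.5 in these data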
# Target sequence (O88943 whole entry, looked up): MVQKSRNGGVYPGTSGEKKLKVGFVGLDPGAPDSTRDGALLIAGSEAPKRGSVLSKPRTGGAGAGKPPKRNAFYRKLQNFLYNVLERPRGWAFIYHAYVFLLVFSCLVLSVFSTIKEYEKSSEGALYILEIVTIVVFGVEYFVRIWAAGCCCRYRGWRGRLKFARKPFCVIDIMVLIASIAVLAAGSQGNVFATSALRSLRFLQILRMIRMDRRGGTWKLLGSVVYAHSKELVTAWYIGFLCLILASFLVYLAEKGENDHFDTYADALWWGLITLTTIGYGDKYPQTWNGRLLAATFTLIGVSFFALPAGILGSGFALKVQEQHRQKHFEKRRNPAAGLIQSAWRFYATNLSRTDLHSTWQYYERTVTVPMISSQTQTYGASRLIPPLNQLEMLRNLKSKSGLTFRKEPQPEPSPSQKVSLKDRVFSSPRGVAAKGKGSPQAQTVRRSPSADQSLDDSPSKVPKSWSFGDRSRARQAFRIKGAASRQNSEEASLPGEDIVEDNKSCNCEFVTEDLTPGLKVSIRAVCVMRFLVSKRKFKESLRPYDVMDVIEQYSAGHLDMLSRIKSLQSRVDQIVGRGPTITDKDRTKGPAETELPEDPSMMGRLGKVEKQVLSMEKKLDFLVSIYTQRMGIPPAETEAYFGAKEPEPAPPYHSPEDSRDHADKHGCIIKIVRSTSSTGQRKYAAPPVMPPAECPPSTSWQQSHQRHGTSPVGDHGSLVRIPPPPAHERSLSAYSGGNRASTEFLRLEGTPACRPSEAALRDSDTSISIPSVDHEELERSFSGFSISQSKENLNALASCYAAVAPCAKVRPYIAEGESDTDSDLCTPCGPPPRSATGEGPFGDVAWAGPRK
# KCNQ2 inh baseline – recorded beside KCNQ2 inh, whose call it bears; B-score; measured here: initial fluorescence intensity artifact check;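 brightness before thallium and not channel activity; 0 = typical well and far values either way flag optical interference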
# Starred values were filed as active, the others as inactive; i = inactive. A portion of the library; count on the stated rates, not on these rows.
# Value order – KCNQ2 inh, KCNQ2 inh baseline
- C=CCN(C(=O)CSC1=NC(=O)CN1C(C)=O)c1nc(C)c(-c2ccccc2)s1
→ i, 2.03
- O=C(Nc1ccsc1C(=O)NC1CCCCC1)c1ccc(F)cc1
→ i, 1.11
- O=C(c1ccc(S(=O)(=O)N2CCCC2)cc1)N1CCC(CN2C(=O)c3cccc4cccc(c34)C2=O)CC1
→ i, 0.27
- COC(=O)c1ccc(C(c2c(N)n(CC(C)C)c(=O)[nH]c2=O)N2CCN(c3ccccc3)CC2)cc1 (stereo unspecified)
→ i, 0.14
- Fc1ccccc1/C=N/Nc1ncnc2ccccc12
→ i, -0.93
- O=C(NCCc1c[nH]c2ccccc12)C(=O)NCC1OCCN1S(=O)(=O)c1ccc(Cl)cc1 (stereo unspecified)
→ i, -0.01
- CCN(c1ccc(OC)cc1)S(=O)(=O)c1nnc(NC(=O)COc2ccc(F)cc2)s1
→ i, -0.3
- CCCN(C(=O)CSCC(=O)Nc1cccc(C)c1)c1c(N)n(Cc2ccccc2)c(=O)[nH]c1=O
→ i, -0.56
- Cc1ccc(NC(=O)c2ccc(NS(=O)(=O)/C=C/c3ccccc3)cc2)nc1
→ i, 0.29
- COc1ccccc1N1CCN(CC(O)COc2ccc3c(c2)OCO3)CC1 (stereo unspecified)
→ i, -0.33
- O=S(=O)(Nn1cnnc1)c1ccccc1
→ i, 1.17
- CN(c1ccccc1)c1nc(N)c([N+](=O)[O-])c(Nc2ccccc2F)n1
→ i, 0.55
- CCOc1cc(C)ccc1OCc1nnc(SCC(=O)c2cccc([N+](=O)[O-])c2)n1CC
→ i, 1.11
- CCN(CCCNC(=O)CCNC(=O)Cn1cnc2ccccc2c1=O)c1ccccc1
→ i, -0.47
- COCCOC(=O)c1c(C)oc2ccc(NS(=O)(=O)c3ccc(F)cc3)cc12
→ i, -1.05
- O=C(NCCCCc1ccccc1)c1cccc(Br)c1
→ i, 0.53
- Cc1ccc(S(=O)(=O)N2CCC(C(=O)OCCOc3ccccc3)CC2)cc1C
→ i, 0.45
- Nc1[nH]n(-c2ccccc2)c(=O)c1N=Nc1ccc2c(c1)OCO2
→ i, 2.41
- O=[N+]([O-])c1cccc(N=Cc2sc3ccccc3c2O)c1
→ i, 1.02
- Cc1ccc(SCc2noc(C(=O)NCC3CCCO3)c2C(=O)O)cc1C (stereo unspecified)
→ i, -2.05

# Molecules from the list above containing a thiophene ring, fused or not, in the order listed:
# Value order – KCNQ2 inh, KCNQ2 inh baseline
- O=C(Nc1ccsc1C(=O)NC1CCCCC1)c1ccc(F)cc1
→ i, 1.11
- O=[N+]([O-])c1cccc(N=Cc2sc3ccccc3c2O)c1
→ i, 1.02

# More records follow:
# Value order – KCNQ2 inh, KCNQ2 inh baseline
- COc1ccc(C)cc1N(C(=O)c1ccccc1F)c1nc2ccccc2s1
→ i, -1.21
- CCCC(CCC)n1[nH]c(=O)c2c(C)cc(C)nc21
→ i, -0.32
- Cc1ccc(-n2c(Cc3cccn3C)nnc2SCC(=O)Nc2nnc(C)s2)cc1
→ i, -2.04
- COC(=O)CNC(=O)CCc1nnc(C2(c3ccc(Cl)cc3)CCC2)o1
→ i, -1.62
- C/C=C/C(=O)OCC(=O)Nc1cccc(S(=O)(=O)NC2=NCCCCC2)c1
→ i, -0.65
- CC(C)Oc1ccc(OCCn2c(=S)[nH]c3c(N)ncnc32)cc1
→ i, -1.87
- CC(Sc1nccn1C)C(=O)Nc1ccc(Cl)cn1 (stereo unspecified)
→ i, 0.14
- O=C(O)Cn1c(SCCOc2ccc(Cl)cc2)nc2ccccc21
→ i, 3.58
- CCOC(=O)C1=C(C)N=C2SCCC(=O)N2C1c1ccc(C(=O)OC)cc1 (stereo unspecified)
→ i, -0.05
- CCS(=O)(=O)N1CCC(C(=O)NCCCN2CCN(c3ccccc3F)CC2)CC1
→ i, 1.11
- CC(=O)N1CCc2cc(S(=O)(=O)NC3CCCCC3)ccc21
→ i, -1.74
- Cc1cc(OCc2cc(C(=O)N3CCN(CC4CC4)CC3)no2)cc(C)c1Cl
→ i, 1.18
- O=C(CSc1n[nH]c(-c2ccco2)n1)Nc1sc2c(c1C(=O)Nc1ccccc1)CCCC2
→ i, -0.23
- CCCCCN(C(=O)NC(=O)Nc1cccc(C)c1C)S(C)(=O)=O
→ i, -0.23
- Cn1cc(C(c2ccccn2)c2cn(C)c3ccccc23)c2ccccc21
→ i, -0.45
- C/C=C(\C)CN1CCN(c2cccc(C)c2C)CC1
→ i, 2.82
- CCN(c1ccc(OC)cc1)S(=O)(=O)c1ccc2c(c1)CC(C)N2C(=O)C1CC1 (stereo unspecified)
→ i, -1.42
- CCOc1ccc(NC(=O)Nc2c(C)n(C)n(-c3ccccc3)c2=O)cc1
→ i, -1.27
- O=C(NNC(=S)NC(=O)c1ccccc1)c1cccnc1
→ i, 0.91
- Cc1cccc(/C=N/n2c(C)nc3ccccc3c2=O)c1
→ i, 0.2

# Next section.
# Value order – KCNQ2 inh, KCNQ2 inh baseline
- CCCN1CC=C2C(C#N)=C(N)C(C#N)(C#N)C(c3cc(OC)ccc3OC)C2C1 (stereo unspecified)
→ i, 3.22
- CC(C)N(Cc1nc(-c2ccccc2)no1)S(=O)(=O)c1ccccc1
→ i, -0.39
- Nc1sc2c(c1C(=O)NC1CCS(=O)(=O)C1)CCCC2 (stereo unspecified)
→ i, -0.2
- CCC(=O)Oc1ccc(C(=O)Nc2ccc([N+](=O)[O-])cc2)cc1
→ i, 0.95
- Cn1c(Cc2ccccc2)nnc1SCC(=O)NC1CC1
→ i, 0.02
- CC(C)c1ccc(S(=O)(=O)NC2CCS(=O)(=O)C2)cc1 (stereo unspecified)
→ i, -1.44
- O=C(CN1CCOCC1)Nc1cc(Cl)ccc1Cl
→ i, -0.7
- c1ccc(N/N=C(\Cc2nc3ccccc3[nH]2)c2ccccc2)cc1
→ i, -1.74
- CC1CC(Nc2ccccc2)c2ccccc2N1C(=O)c1ccco1 (stereo unspecified)
→ i, -3.19
- CCCSc1nc2c(cnn2-c2ccc(F)cc2)c(=O)[nH]1
→ i, 0.06
- Cc1ccc2[nH]c(C(=O)N3CCOCC3)cc2c1
→ i, -0.05
- CC(=O)C12CCCCC1CC1[C@@H]3CC(C)C4=CC(=O)CC[C@]4(C)C3CC[C@@]12C (stereo partly specified)
→ i, 1.14
- Cc1noc(C)c1CSc1nnnn1-c1ccc(Cl)cc1
→ i, 0.01
- CCn1c(SCC(=O)N2CCCCC2)nc2c(c1=O)SC(C)C2 (stereo unspecified)
→ i, 0.63
- CCOC(=O)Cn1c(=O)oc2cc(S(=O)(=O)N3CCCc4ccccc43)ccc21
→ i, -1.37
- O=C1[C@H]2[C@@H](c3ccc(F)cc3)N3C(=O)N(c4cccc(Br)c4)C(=O)[C@@]3(Cc3ccccc3)[C@H]2C(=O)N1C1CCCCC1
→ i, -0.21
- CC(C)C[C@H](NC(=O)OC(C)(C)C)c1nnc(SCc2cccc(F)c2)o1
→ -7.47*, 1.6*
- COc1ccc(OCCNC(=O)/C=C/c2ccc([N+](=O)[O-])cc2)cc1
→ i, 0.06
- Cc1ccc2oc(C(=O)NCCC3CCCCO3)c(C)c2c1 (stereo unspecified)
→ i, -1.41
- Cn1c(SCc2n[nH]c(=S)n2-c2ccccc2)nnc1-c1ccccc1
→ i, -1.18

# Remaining list, next part:
# Value order – KCNQ2 inh, KCNQ2 inh baseline
- CC(Oc1ccc2c(c1)oc(=O)c1ccccc12)C(=O)NCC1CCC(C(=O)O)CC1 (stereo unspecified)
→ i, 2.81
- CCn1c(COc2ccc(=O)n(-c3ccccc3)n2)nnc1SCc1ccc(C)cc1
→ i, 0.76
- C=CCn1c(SCC(C)=O)nc2scc(-c3ccc(C)o3)c2c1=O
→ i, 0.57
- CCCCN(C(=O)c1ccc(Cl)c([N+](=O)[O-])c1)c1c(N)n(CCC)c(=O)[nH]c1=O
→ i, 0.87
- Cn1cc(C(=O)C(=O)N2CCCc3ccccc32)c2ccccc21
→ i, -1.21
- CC(=O)N1CCN(Cc2nc(-c3cccc(Cl)c3)no2)CC1
→ i, 1.54
- O=C(c1ccc(S(=O)(=O)NCc2ccco2)cc1)N1CCN(Cc2ccccc2)CC1
→ i, -0.18
- O=S(=O)(NCCOC12CC3CC(CC(C3)C1)C2)c1cccc2nsnc12
→ i, 0.76
- CN1CCN(c2ccc(C(=O)c3ccc(F)cc3)cc2)CC1
→ i, 1.27
- Cc1ccc2cc(C3CC(c4ccco4)=NN3S(=O)(=O)c3ccccc3)c(Cl)nc2c1 (stereo unspecified)
→ i, 0.69
- COc1ccc(/C=N/NS(=O)(=O)c2ccc(F)cc2)cc1COc1cc(F)ccc1[N+](=O)[O-]
→ i, -1.18
- COc1cccc(NC(=O)C2CCCN(c3ncnc4c3nc3n4CCCCC3)C2)c1 (stereo unspecified)
→ i, -1.28
- O=C(CCc1nc2ccccc2c(=O)[nH]1)OCC(=O)c1cccc(Cl)c1
→ i, 0.17
- CCOC(=O)N1CCN(C(=O)Cc2ccc(C)cc2)CC1
→ i, 1.26
- Cc1ccc(-c2cc(=O)c3cc(C)ccc3[nH]2)cc1
→ i, 0.58
- O=C(NCCSCc1ccccc1)c1cc(S(=O)(=O)N2CCOCC2)ccc1F
→ i, 0.15
- O=S(=O)(Nc1ccc(N2CCCCC2)cc1)c1cccs1
→ i, -0.81
- Nc1cccc(Nc2ccccc2)c1
→ i, -0.42
- Cc1noc(C)c1COc1cccc(C(=O)NC(C)(C)C)c1
→ i, -2.46
- O=C(OCCN1C(=O)c2ccccc2C1=O)c1cc2ccccc2o1
→ i, 0.76

# Next compounds.
# Value order – KCNQ2 inh, KCNQ2 inh baseline
- CC1(C)c2[nH]c3ccccc3c2C[C@H]2C(=O)N(Cc3cccc(F)c3)C(=O)N21
→ i, -0.06
- CC(C)C[C@H](NC(=O)c1[nH]cnc1C(=O)Nc1ccccc1)C(=O)OC(C)(C)C
→ i, -0.06
- CCOc1ccc(C(c2nnnn2Cc2ccccc2)N2CCN(C(=O)c3ccco3)CC2)cc1 (stereo unspecified)
→ i, 0.06
- COC(=O)c1ccc(C(=O)OC)c(NC(=S)N2CCN(c3ccccn3)CC2)c1
→ i, 0.43
- Cc1ccc(C(=O)ONc2ccc(N=O)cc2)cc1
→ i, 0.13
- COc1ccc(O)c(/C=N/N=C/c2cccc([N+](=O)[O-])c2)c1
→ i, 0.93
- O=C(Cc1ccc([N+](=O)[O-])cc1)c1c(O)cc(O)cc1O
→ i, -0.32
- N=c1sccn1CC(=O)Nc1cccc(S(=O)(=O)N2CCCCCC2)c1
→ i, 2.03
- c1ccc(OCCOc2ncnc3ccccc23)cc1
→ i, 0.59
- O=C(NC(=S)Nc1ccccc1Br)C1CCC1
→ i, -0.14
- COC(=O)/C(C#N)=C/c1cc(C)sc1C
→ i, 0.03
- Cc1ccc(C(C)NC(=O)/C(C#N)=C\c2c(C)[nH]c3ccccc23)cc1 (stereo unspecified)
→ i, -0.51
- COc1ccc(/C=C/C(=O)c2ccccc2O)cc1
→ i, 0.65
- CCN1CCN(C(=O)CS(=O)(=O)Cc2nc(-c3cccc(OC)c3)oc2C)CC1
→ i, -1.04
- C/C(N)=C(/C#N)C(=O)CSc1nnc(Nc2cccc(C)c2C)s1
→ i, -1.59
- CCS(=O)(=O)/N=C(\N)c1ccccc1
→ i, 1.87
- COc1ccc(S(=O)(=O)c2cnc3ccc(OC)cc3c2N2CCC3(CC2)OCCO3)cc1
→ i, 0.71
- Cc1ccccc1NC(=O)C(C)OC(=O)CNS(=O)(=O)c1ccc(C#N)cc1 (stereo unspecified)
→ i, 0.2
- CCN(CC)CC#CC(O)(c1ccccc1)c1ccccc1
→ i, 0.02
- O=C(C1CC1)N1CCc2cc(S(=O)(=O)NCCCN3CCCCC3)ccc21
→ i, 1.33

# A section taken from the entries so far:
# Value order – KCNQ2 inh, KCNQ2 inh baseline
- Cc1ccccc1NC(=O)C(C)OC(=O)CNS(=O)(=O)c1ccc(C#N)cc1 (stereo unspecified)
→ i, 0.2
- CCN(CC)CC#CC(O)(c1ccccc1)c1ccccc1
→ i, 0.02
- O=C(C1CC1)N1CCc2cc(S(=O)(=O)NCCCN3CCCCC3)ccc21
→ i, 1.33

# (more compounds)
# Value order – KCNQ2 inh, KCNQ2 inh baseline
- CN(C)C(=O)CSc1nnc2sc3ccccc3n12
→ i, 1.57
- Cc1cc(C)c(C)c(OCCNCc2ccccc2)c1
→ i, 0.14
- COc1ccc(CNc2nc3ccccc3n2Cc2ccc(C)cc2)cc1OC
→ i, 0.25
- O=C(c1ccccc1)c1ccc(N2CCN(C(=O)c3cccc(F)c3F)CC2)c(F)c1
→ i, -1.43
- COc1ccc(NC2=CC(c3cccc(OC)c3)N(c3ccc(OC)cc3)C2=O)cc1 (stereo unspecified)
→ i, -3.07
- FC(F)Oc1ccc(/C=N/c2c(-c3ccc(OC(F)F)cc3)nc3n2CCS3)cc1
→ i, 0.2
- COc1ccc2cc3c(N)nn(C(=O)c4ccc(F)cc4)c3nc2c1
→ i, 1.05
- CC(C)Oc1nc(-c2ccccc2O)nc2ccccc12
→ i, 0.1
- O=S(=O)(c1ccccc1)c1nc(-c2cccs2)oc1NCCCn1ccnc1
→ i, 4.92
- COc1ccc(N2CCOCC2)c(NC(=O)COc2cccc(C)c2)c1
→ i, -0.19
- Cc1cccc(C(=O)OCc2cc(=O)oc3c(C)c(C)ccc23)c1O
→ i, 1.14
- O=C1CCCC(O)=C1N=Nc1cccc(C(=O)O)c1
→ i, 1
- Cc1ccc(C(=O)NCCn2ccc3ccccc32)cc1[N+](=O)[O-]
→ i, 0.12
- O=c1/c(=C/c2ccccn2)sc2n1CN(c1ccccc1)CN=2
→ i, -0.07
- Cc1ccccc1-n1c(=O)cc(NCc2ccc3c(c2)OCO3)[nH]c1=O
→ i, 1.25
- COc1ccc(OC)c(NC(=O)COC(=O)/C=C/c2c(C)nn(C3CCS(=O)(=O)C3)c2Cl)c1 (stereo unspecified)
→ i, 1.41
- CC(C)NC(=O)COC(=O)c1ccc(S(=O)(=O)N2CCCC2)cc1
→ i, -0.48
- Cc1cccc(NC(=S)N2CCC(NC(=O)c3ccco3)CC2)c1
→ i, 1.4
- O=C(CN(C(=O)c1csnn1)c1ccc(F)c(Cl)c1)NC1CCCC1
→ i, 0.52

# High-throughput results from PubChem.
